Assay outcomes as filed in PubChem.
UUG fidelity = yeast start codon fidelity modulation | S. cerevisiae UUG-firefly luciferase reporter, luminescence/redox ratio | activity score, % at 18.7 µM | hit rate 0.13% among 350,000;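 active means replicate mean at a twofold rise or more, about +100% in these data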;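 further: firefly luciferase made from a UUG start codon reports start codon fidelity; reporter light over untreated wells divided by growth signal over untreated wells; some hits fall short of that in this replicate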
CSC inhib = blocks cancer stem cells | cancer stem cell-like cells viability, luminescence | inhibition, % at 7.5 µM | hit rate 1.1% among 300,000;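 active means mean at 75% or more and at least half the replicates too; inconclusive means mean and replicates disagree; tested in HMLE shEcad cells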;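 further: 0% = median of negative and 100% = median of positive control wells; the first replicate is given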
Env fusion inh = inhibitors of HIV Env-mediated cell fusion; HeLa-JRFL Env/CEM21 cell fusion, luciferase; inhibition, % at 12.3 µM; hit rate 1.1% among 360,000;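 active means mean replicate inhibition score of at least 50 and every replicate individually at or above 50; inconclusive means only one of the two criteria met; inactive means mean below 50 and not all replicates reaching 50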;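 further: 0% = plate neutral controls and 100% = maraviroc near 300 nM; one replicate is shown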
eIF4H inh = inhibitors of RNA binding by human eIF4H; Q15056; eIF4H fluorescence polarization binding assay; inhibition, % at 35 µM; hit rate 0.94% among 290,000; AID 2012;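 active means 50% or more with normal probe brightness, or confirmed in later tests; inconclusive means above 50% with abnormal brightness, or retests that disagree; inactive means below 50% or failed in later tests; about a fifth of its hits are not listed in these tables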;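 further: calls also rest on retests at 20 µM and on dose response follow-up; 0% = protein and probe with vehicle and 100% = probe without protein; strong numbers were not always called active; many hits fall short of the cut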
MT1-MMP act inh = inhibitors of human MT1-MMP activation. P50281. GFP/RFP ratio change, % at 20 µM. HT1080 RFP-PRO-GFP cells, GFP/RFP ratio fluorescence, overnight; percent of plate control window, DMSO zero. hit rate 0.061% among 360,000;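 active means GFP/RFP ratio change of at least 30% with cell ATP level not reduced by more than half and red fluorescence within 50% of control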; further: strong numbers were not always called active
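Compound: 20 µM single dose, 1% DMSO / System: HT1080 RFP-PRO-GFP cells / Controls: DMSO and RFP-L50D-GFP cell wells / Read-out basis: GFP/RFP fluorescence ratio / Schedule: overnight compound exposure at 37 °C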
Rce1 inhib = blocks yeast Ras-converting enzyme. Q03530. yeast membranes, quenched prenylated peptide cleavage fluorescence. calls only. hit rate 0.27% among 290,000;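 active means fall in fluorescence gain of 50% or more versus controls, with final raw signal at or below 3038400; inconclusive means same 50% fall but final raw signal above 3038400; inactive means fall in fluorescence gain under 50%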;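 further: plate controls were neutral control wells for no effect and wells lacking membranes for full effect; tested at 10 µM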
Target sequence (Q03530 whole entry, looked up): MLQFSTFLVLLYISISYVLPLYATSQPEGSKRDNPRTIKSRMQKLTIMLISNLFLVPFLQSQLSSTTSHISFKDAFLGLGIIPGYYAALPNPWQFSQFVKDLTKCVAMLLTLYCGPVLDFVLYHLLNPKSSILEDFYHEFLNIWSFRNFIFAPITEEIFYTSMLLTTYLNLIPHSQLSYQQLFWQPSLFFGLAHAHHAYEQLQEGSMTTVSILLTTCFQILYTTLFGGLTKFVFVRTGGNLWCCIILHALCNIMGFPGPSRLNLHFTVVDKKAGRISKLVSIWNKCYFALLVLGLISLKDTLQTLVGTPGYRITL
PABP FP inh = blocks human PABP binding to poly(A) RNA. P11940. fluorescence polarization. inhibition, % at 35 µM. hit rate 1% among 290,000;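 active means 50% or more with normal probe brightness, or confirmed in later tests; inconclusive means above 50% with abnormal brightness, or retests that disagree; inactive means below 50% or failed in later tests; about a fifth of its hits are not listed in these tables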;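 further: calls also rest on retests at 20 µM and on dose response follow-up; controls were probe without protein and protein plus probe with vehicle; some compounds called inactive have numbers as strong as hits; many hits fall short of the cut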
Target sequence (P11940 whole entry, looked up): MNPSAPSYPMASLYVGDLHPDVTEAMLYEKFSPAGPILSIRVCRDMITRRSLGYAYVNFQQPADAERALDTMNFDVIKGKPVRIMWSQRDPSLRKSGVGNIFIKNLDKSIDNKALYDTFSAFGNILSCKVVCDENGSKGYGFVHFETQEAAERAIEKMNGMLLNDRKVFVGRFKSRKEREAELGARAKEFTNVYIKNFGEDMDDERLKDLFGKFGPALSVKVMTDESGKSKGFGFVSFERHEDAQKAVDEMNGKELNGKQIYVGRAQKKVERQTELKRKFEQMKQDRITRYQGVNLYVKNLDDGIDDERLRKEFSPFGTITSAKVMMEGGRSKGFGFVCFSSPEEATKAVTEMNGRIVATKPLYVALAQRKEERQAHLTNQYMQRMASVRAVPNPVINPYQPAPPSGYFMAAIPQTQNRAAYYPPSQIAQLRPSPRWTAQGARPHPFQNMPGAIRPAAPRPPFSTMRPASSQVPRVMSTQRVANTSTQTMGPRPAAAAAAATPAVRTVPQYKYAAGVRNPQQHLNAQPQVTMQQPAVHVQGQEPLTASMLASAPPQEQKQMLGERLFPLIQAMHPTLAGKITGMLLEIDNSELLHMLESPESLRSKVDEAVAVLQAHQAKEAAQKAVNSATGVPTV
eIF4H inh retest = recorded beside eIF4H inh, whose call it bears; inhibition, %; compound at 20 µM; confirmation average;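 mean of two retest wells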
PABP FP inh retest = recorded beside PABP FP inh, whose call it bears; inhibition, %; compound at 20 µM; confirmation repeats;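 mean of two retest wells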
MT1-MMP act inh RFP = recorded beside MT1-MMP act inh, whose call it bears; RFP signal change, %; measured here: RFP expression control read;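 0 = vehicle wells; hits needed this value within 50% of zero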
Starred values were filed as active, the others as inactive; i = inactive; ? = inconclusive; · = no result given. No enrichment for hits. Share with any hit: about 2.9%.

SMILES	UUG fidelity	CSC inhib	Env fusion inh	eIF4H inh	MT1-MMP act inh	MT1-MMP act inh RFP	Rce1 inhib	PABP FP inh	others
O=C(CN1c2cccc3cccc(c23)S1(=O)=O)Nc1ccc(F)c(F)c1F	-9	-3	3	·	4	-5	·	·
CCOC(=O)C(C(=O)OCC)c1cc(Br)c2noc3c2c1C(=O)c1ccccc1-3	·	117*	·	?	-29	80	i	?
O=C(Nc1ccccc1F)c1csc(COCCO)n1	-6	·	4	·	-7	2	·	·
COc1ccc([C@H]2CC(=O)C=C(/C=C/c3ccccc3)C2)cc1OC	-5	10	-1	·	11	-8	·	·
O=C(CN1CCN(c2ccc(Cl)cc2)CC1)c1ccccc1	-6	9	9	-1	-2	-1	i	-2
CCOc1ccccc1CN1CCC(O)CC1	-36	-11	·	0	3	7	i	12
O=C1COc2ccc(C(=O)COC(=O)c3ccc(Cl)cc3[N+](=O)[O-])cc2N1	-5	1	-13	·	3	-2	i	·
O=C1N=C(N2CCC(Cc3ccccc3)CC2)S/C1=C/c1cn[nH]c1-c1ccccc1	-22	29	-36	2	2	-9	i	-3
CCc1ccc2[nH]c3nc(SCCN4CCOCC4)nnc3c2c1	1	39	9	-2	3	-15	i	0
O=C1NC2(CCCCCC2)C(=O)N1Cc1c(F)cccc1Cl	-17	-8	9	1	-2	4	i	7
COc1cccc(NC(=O)CN(C)C(=O)CCCNC(=O)c2ccc(Cl)cc2)c1	-12	·	-6	·	11	0	·	·
Cc1cc(C(=O)Cn2nc(C(=O)O)c3ccccc3c2=O)c(C)n1CCc1ccc(Cl)cc1	·	1	20	-2	-1	-3	i	2
CCN1C(=O)C(=O)N(CC(=O)N2CCN(c3ccccc3)CC2)C1=O	·	-10	-5	·	1	-3	i	·
CC(C)CN(C(=O)CN(C)C(=O)Cc1c(F)cccc1Cl)c1c(N)n(CC(C)C)c(=O)[nH]c1=O	4	·	-31	·	-4	4	·	·
Nc1ccccc1N1CCN(C(=O)c2ccccc2)CC1	-9	8	·	8	4	6	i	4
Cc1cccc(NC(=O)CCCSc2nc3ccccc3[nH]2)c1	·	22	15	-2	-1	0	i	9
CCCSc1nc2c(c(=O)n1-c1ccc(OCC)cc1)SCC2	-9	-18	6	-5	4	-1	i	7
CN(CC(=O)Nc1ccc(F)cc1)C(=O)Cn1cnc2ccc([N+](=O)[O-])cc2c1=O	-14	-5	-5	·	-1	1	·	·
Cc1cc(N/N=C/c2ccc(F)cc2)nc(NCc2ccccc2)n1	5	21	-7	-4	1	-3	i	4
Clc1ccccc1Nc1nc(-c2ccncc2)nc2ccccc12	-5	23	16	1	-3	-7	i	29
CC(=O)c1ccc(Nc2nc(C(N)Cc3ccc(C(F)(F)F)cc3)cs2)cc1 (stereo not given)	-12	·	-11	·	-11	-10	·	·
CC(CCc1ccccc1)NC(=O)COC(=O)C1CCC(C(C)(C)C)CC1 (stereo not given)	9	0	6	1	3	5	i	9
COc1ccc(OC)c(NS(=O)(=O)c2ccc(N3CCCC3=O)cc2)c1	5	57	·	11	11	-4	i	6
Cc1nc(SCC(=O)NC2CCCC2)[nH]c(=O)c1Cc1ccccc1	·	·	·	-1	6	-9	i	-7
O=C1C=C(N2CCCCC2)C2(CCCCC2)O1	·	-3	-7	-3	1	2	i	-7
O=C(CSc1ncn[nH]1)c1ccc2c(c1)OCO2	-2	20	9	-10	6	3	i	-9
COc1ccc(CCNC(=O)CCCN2C(=O)c3ccccc3C2=O)cc1OC	-14	-6	-59	8	5	1	i	-4
CC(=O)Nc1ccc(NC(=O)CSc2nnc(CNc3ccc(F)cc3)n2CC2CCCO2)cc1 (stereo not given)	·	-11	10	-6	5	5	i	0
CC(CN1CC(=O)NC(=O)C1)N1CC(=O)NC(=O)C1 (stereo not given)	0	·	2	·	2	5	·	·
Cc1nc(SCC(=O)NCc2ccc3c(c2)OCO3)nc(C)c1C	1	-27	·	·	-1	0	·	·
Cc1ccc(CN2CCN(c3ncccn3)CC2)o1	-11	-12	·	-5	4	-2	i	48
CCCCn1c(CN2CCN(CCO)CC2)nc2ccccc21	-24	-14	-34	-6	-4	-3	i	-5
COc1ccc2[nH]c(=O)c(CN(C(=O)C3CCCO3)c3ccc(C)c(C)c3)cc2c1 (stereo not given)	-10	7	7	2	-3	-3	i	1
Nc1c(C(=O)N/N=C/c2ccccc2)cnn1-c1ccccc1	-20	-6	-34	-4	3	5	i	-5
CCOC(=O)c1c(NC(=O)Cn2nc(C(F)(F)F)cc2C)sc2c1CCC2	·	·	·	-18	2	-6	i	0
NS(=O)(=O)c1ccc(CCNC(=O)C2CCCN2S(=O)(=O)c2cccc3nsnc23)cc1 (stereo not given)	-6	-6	0	13	-4	-1	i	6
COc1cccc(NC(=O)CN(C)C(=O)Cc2ccc3c(c2)OCCO3)c1	1	·	1	·	3	2	·	·
CC(=O)c1c(Nc2cccc(F)c2)oc(C)cc1=O	0	13	6	-9	0	5	i	0
C=CCn1c(CNS(=O)(=O)c2ccc(F)cc2)n[nH]c1=S	5	14	-4	6	-2	-6	i	9
COc1ccc(CCC(C)N2CCOCC2)cc1 (stereo not given)	-23	-8	3	11	0	1	i	5

Reprinted from the part before: five entries; new compounds follow.
SMILES	UUG fidelity	CSC inhib	Env fusion inh	eIF4H inh	MT1-MMP act inh	MT1-MMP act inh RFP	Rce1 inhib	PABP FP inh	others
NS(=O)(=O)c1ccc(CCNC(=O)C2CCCN2S(=O)(=O)c2cccc3nsnc23)cc1 (stereo not given)	-6	-6	0	13	-4	-1	i	6
COc1cccc(NC(=O)CN(C)C(=O)Cc2ccc3c(c2)OCCO3)c1	1	·	1	·	3	2	·	·
CC(=O)c1c(Nc2cccc(F)c2)oc(C)cc1=O	0	13	6	-9	0	5	i	0
C=CCn1c(CNS(=O)(=O)c2ccc(F)cc2)n[nH]c1=S	5	14	-4	6	-2	-6	i	9
COc1ccc(CCC(C)N2CCOCC2)cc1 (stereo not given)	-23	-8	3	11	0	1	i	5
NC(=O)c1ccc(NC(=O)CCC(=O)c2cccs2)cc1	2	-27	11	21	-2	0	i	17
O=C(Cc1cccc(NC(=O)C2CCN(C(=O)C3CCCCC3)CC2)c1)Nc1cccc(C(=O)N2CCOCC2)c1	7	·	19	·	0	3	·	·
Cc1cccc(C)c1OCC(=O)OCC(=O)c1ccc2c(c1)NC(=O)CO2	-7	-5	·	-7	-4	2	i	-7
COc1ccc(S(=O)(=O)N(C)CC(=O)NCc2ccco2)cc1Cl	-7	-7	6	-12	0	-2	i	-5
O=C(O)CSc1nc2ccc(C(=O)c3ccccc3)cc2[nH]1	-14	-4	1	10	-5	-2	i	9
COc1ccc(Br)cc1CN(C)CC(=O)NCCc1ccccc1	-3	0	9	-2	5	1	i	9
CC(CN1CCCCC1)OC(=O)C(C)(c1ccccc1)c1ccccc1 (stereo not given)	·	0	-12	0	0	3	i	-1
CC(=O)c1ccc(N2CCN(C(=O)Nc3ccc(F)cc3F)CC2)cc1	·	-3	-16	-14	2	0	i	-2
C=CCN=c1scc(-c2ccc3c(c2)NC(=O)CO3)n1/N=C(\C)c1ccccn1	·	·	?	-5	-8	-30	·	94	eIF4H inh retest=-4;PABP FP inh retest=14
COc1cccc(C(=O)Nc2cccnc2)c1OC	-16	-8	-8	12	0	3	i	4
O=C(CCCNS(=O)(=O)c1cccc2nsnc12)NCc1ccc(F)cc1	-8	-11	·	-12	3	-3	i	-4
COC(=O)[C@@H]1C2CCC(C(=O)Nc3ccccc3)(CC2)[C@@H]1C(=O)OC	-5	-5	·	-1	0	4	i	-2
COc1cccc(-n2c(SCC(=O)NCc3ccco3)nnc2-c2c[nH]c3ccccc23)c1	-16	-5	-94	-3	-3	2	i	2
Cc1ccc2c(C)c(C(=O)NCc3ccc(S(N)(=O)=O)cc3)oc2c1C	·	2	-22	3	1	0	i	10
O=C(COC(=O)C1COc2ccccc2O1)Nc1ccc2c(c1)CCC2 (stereo not given)	-3	-11	·	-11	-1	1	i	-1
CC1(C)NC(=O)N(CCCCSc2ccc(Cl)cc2)C1=O	4	32	18	-4	-1	-5	i	-11
O=C(O)CSc1ccc2ccccc2n1	-9	-9	·	-12	-1	2	i	2
Cc1cc(C)cc(NC(=O)Cn2cnc3c(nnn3Cc3ccc(F)cc3)c2=O)c1	·	-2	0	-1	-2	-1	i	8
CCC(C)Nc1nc(OC)nc(N(C)C#N)n1 (stereo not given)	-1	-7	·	0	-1	1	i	3
COCCCN1CC(=O)N2Cc3[nH]c4ccccc4c3C[C@H]2C1=O	1	-11	4	3	5	0	i	3
CSc1ccccc1NC(=O)C1CC(c2c(F)cccc2Cl)=NO1 (stereo not given)	-15	-2	4	-11	2	-2	i	2
COc1ccccc1N=c1oc2cc(O)ccc2cc1C(=O)NCC1CCCO1 (stereo not given)	·	7	8	-1	0	3	i	6
CC1(c2nnc(-c3cccc(Cl)c3)o2)CC(c2ccccc2F)=NO1 (stereo not given)	-13	·	-18	·	1	2	i	·
O=C(CSc1nc(=O)n2ccccc2n1)NCCc1ccccc1	-10	-6	-7	·	4	2	i	·
Cc1ccc2nc(CC(O)(c3ccccc3)c3ccccc3)ccc2c1	12	·	6	·	0	-8	·	·

An excerpt from above in order of SMILES length, highest first:
SMILES	UUG fidelity	CSC inhib	Env fusion inh	eIF4H inh	MT1-MMP act inh	MT1-MMP act inh RFP	Rce1 inhib	PABP FP inh	others
O=C1COc2ccc(C(=O)COC(=O)c3ccc(Cl)cc3[N+](=O)[O-])cc2N1	-5	1	-13	·	3	-2	i	·
COc1ccc([C@H]2CC(=O)C=C(/C=C/c3ccccc3)C2)cc1OC	-5	10	-1	·	11	-8	·	·
COc1ccc(OC)c(NS(=O)(=O)c2ccc(N3CCCC3=O)cc2)c1	5	57	·	11	11	-4	i	6
COc1ccccc1N=c1oc2cc(O)ccc2cc1C(=O)NCC1CCCO1 (stereo not given)	·	7	8	-1	0	3	i	6
O=C(CSc1nc(=O)n2ccccc2n1)NCCc1ccccc1	-10	-6	-7	·	4	2	i	·
O=C(CSc1ncn[nH]1)c1ccc2c(c1)OCO2	-2	20	9	-10	6	3	i	-9
O=C(Nc1ccccc1F)c1csc(COCCO)n1	-6	·	4	·	-7	2	·	·
